High-throughput results from PubChem.
Vaccinia stage = blocks a specific stage of Vaccinia orthopoxvirus infection, primary screen, cell-based, single point | Vaccinia-infected cells, mCherry/Venus stage reporter fluorescence; stronger effect = lower value; some inactives read as strong as hits | activity change (mCherry), % (concentration not given with the values) | 89,000 tested, 0.01% active | AID 1053133, 2014;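 active = mCherry past -33% and 40 or more points under the early reporter, replicates agreeing; inconclusive = past -33% without that gap or agreement; tested in A549 cells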;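 also: scaled between vehicle wells and reference inhibitor wells; 23 nL library stock went into each well; one replicate is shown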
Vaccinia stage Venus = further read-out of Vaccinia stage, marked with its call; activity change (Venus), %; measured here: Venus reporter, other viral stage;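 negative = less Venus signal; first of two replicates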
* hit, by the source's call; ? = inconclusive; / = not tested or not shown; & = joins results of further samples. A portion of the library (hit frequency here may not be typical).

| Structure | Vaccinia stage Venus | Vaccinia stage |
| --- | --- | --- |
| C[C@H](CO)N1C[C@H](C)[C@@H](CN(C)Cc2ccc(C(F)(F)F)cc2)Oc2ccc(NS(=O)(=O)c3ccc(F)cc3)cc2C1=O | -16 | -28 |
| C[C@H]1CN([C@@H](C)CO)C(=O)c2cc(C3=CCCC3)cnc2O[C@H]1CN(C)Cc1ccc(C(=O)O)cc1 | 14 | 21 |
| COc1ccc2c3c(n(C)c2c1)[C@H](CO)N(C(=O)c1cnccn1)CC31CCN(C(=O)c2cnccn2)CC1 | 22 | 17 |
| C[C@@H]1CN([C@@H](C)CO)C(=O)c2cccc(NC(=O)c3ccncc3)c2O[C@@H]1CN(C)C(=O)Nc1ccccc1 | 9 | 15 |
| COc1cccc(NC(=O)N[C@@H]2C=C[C@@H](CC(=O)Nc3ccc(-c4ccccc4)cc3)O[C@H]2CO)c1 | -16 | -17 |
| COc1ccc(NC(=O)N(C)C[C@H]2Oc3cc(C#CCC(C)C)ccc3S(=O)(=O)N([C@H](C)CO)C[C@@H]2C)cc1 | / | ? |
| Cc1ccc(S(=O)(=O)N(C)C[C@@H]2Oc3c(NC(=O)C4CCCCC4)cccc3C(=O)N([C@@H](C)CO)C[C@@H]2C)cc1 | 6 | -2 |
| C[C@H]1CN([C@@H](C)CO)C(=O)c2cc(NS(=O)(=O)c3ccc(F)cc3)ccc2O[C@@H]1CN(C)S(=O)(=O)c1cccs1 | -1 | 6 |
| Cc1ccc(S(=O)(=O)N[C@@H]2CC[C@H](CC(=O)O)O[C@@H]2CO)cc1 | 5 | 6 |
| C[C@H](CO)N1C[C@H](C)[C@H](CN(C)Cc2ccccc2)Oc2ncc(C#CC3(O)CCCC3)cc2C1=O | 3 | 11 |
| CN1c2ccc(C#Cc3cccnc3)cc2[C@@H]2[C@@H](CCN2S(=O)(=O)c2ccccc2F)[C@H]1CO | -20 | -22 |
| O=C(Cc1ccccc1)N1CCCCN2[C@@H](CO)[C@H](c3ccc(C#Cc4ccccc4)cc3)[C@@H]2C1 | / | ? |
| C[C@@H]1CCCCO[C@@H](CN(C)C(=O)NC2CCCCC2)[C@H](C)CN([C@H](C)CO)C(=O)c2cc(NC(=O)Nc3ccc(F)cc3)ccc2O1 | -8 | -9 |
| C[C@@H]1CN([C@@H](C)CO)C(=O)c2cc(-c3cccc(C#N)c3)cnc2O[C@@H]1CN(C)C(=O)c1ccccn1 | 11 | 13 |
| CCCN(C)C[C@H]1OCCCC[C@@H](C)Oc2ccc(NS(=O)(=O)c3cccs3)cc2C(=O)N([C@H](C)CO)C[C@@H]1C | 14 | 21 |
| O=C(C[C@H]1CC[C@H]2[C@@H](COC[C@H](O)CN2Cc2ccc(Oc3ccccc3)cc2)O1)Nc1nccs1 | / | ? |
| CO[C@@H]1CN(C)C(=O)c2cc(NS(C)(=O)=O)ccc2OC[C@@H](C)N(C(=O)C2CC2)C[C@H]1C | 3 | 9 |
| C[C@H]1CN([C@@H](C)CO)C(=O)c2cccc(NS(=O)(=O)c3ccc(F)cc3)c2O[C@H]1CN(C)S(=O)(=O)c1ccc(Cl)cc1 | -12 | -5 |
| C/C=C/c1ccc([C@H]2[C@H]3CN(S(=O)(=O)c4cccs4)CCCCN3[C@H]2CO)cc1 | -15 | 5 |
| COc1ccccc1C#Cc1ccc2c(c1)O[C@@H](CN(C)Cc1cncnc1)[C@@H](C)CN([C@H](C)CO)S2(=O)=O | -15 | -12 |
| C[C@@H]1CN([C@@H](C)CO)C(=O)Cc2cc(NS(=O)(=O)c3cn(C)cn3)ccc2O[C@@H]1CN(C)Cc1ccncc1 | 0 | 4 |
| O=C(c1ccccc1)N1CC(=O)N2[C@H](C1)[C@@H](c1ccc(C#CCC3CCCC3)cc1)[C@@H]2CO | -22 | -22 |
| CC(C)NC(=O)Nc1ccc2c(c1)C(=O)N([C@H](C)CO)C[C@H](C)[C@@H](CN(C)CC1CCCCC1)OCCCC[C@H](C)O2 | -1 | 15 |
| Cc1ccc(S(=O)(=O)N(C)C[C@H]2OCCCC[C@@H](C)Oc3ccc(NS(=O)(=O)c4c(C)noc4C)cc3C(=O)N([C@H](C)CO)C[C@@H]2C)cc1 | -6 | -6 |
| CCC(=O)Nc1ccc2c(c1)C(=O)N(C)C[C@@H](OC)[C@@H](C)CN(C(=O)NC(C)C)[C@H](C)CO2 | 8 | 7 |

Ordered by formula weight (rising): 4 of the compounds above.
| Structure | Vaccinia stage Venus | Vaccinia stage |
| --- | --- | --- |
| CCC(=O)Nc1ccc2c(c1)C(=O)N(C)C[C@@H](OC)[C@@H](C)CN(C(=O)NC(C)C)[C@H](C)CO2 | 8 | 7 |
| C[C@H](CO)N1C[C@H](C)[C@H](CN(C)Cc2ccccc2)Oc2ncc(C#CC3(O)CCCC3)cc2C1=O | 3 | 11 |
| C[C@H]1CN([C@@H](C)CO)C(=O)c2cc(C3=CCCC3)cnc2O[C@H]1CN(C)Cc1ccc(C(=O)O)cc1 | 14 | 21 |
| C[C@@H]1CN([C@@H](C)CO)C(=O)Cc2cc(NS(=O)(=O)c3cn(C)cn3)ccc2O[C@@H]1CN(C)Cc1ccncc1 | 0 | 4 |

New compounds follow
| Structure | Vaccinia stage Venus | Vaccinia stage |
| --- | --- | --- |
| Cc1ccccc1S(=O)(=O)N1C[C@@H](O)COC[C@H]2O[C@@H](CC(=O)NCCc3ccccc3)CC[C@@H]21 | -13 | -9 |
| O=S(=O)(c1ccccc1)N1CC[C@@H]2[C@@H](CO)Nc3ccc(C#Cc4ccccc4F)cc3[C@@H]21 | -6 | -5 |
| O=C(C1CCOCC1)N1CC(=O)N2[C@H](C1)[C@H](c1ccc(C#CCc3ccccc3)cc1)[C@@H]2CO | -2 | -1 |
| O=C(NC1CCC1)[C@H]1[C@H](CO)[C@H]2Cn3c(ccc(-c4ccc(F)cc4)c3=O)[C@@H]1N2 | 7 | 19 |
| C[C@H]1CN([C@@H](C)CO)C(=O)Cc2cc(NC(=O)C3CCCCC3)ccc2O[C@H]1CN(C)S(=O)(=O)c1ccc(F)cc1 | -7 | -2 |
| C[C@H]1CN([C@@H](C)CO)C(=O)c2cccc(NC(=O)C3CCOCC3)c2O[C@H]1CN(C)CC1CC1 | 19 | 20 |
| C[C@H]1CN([C@@H](C)CO)S(=O)(=O)c2ccc(C#CC(C)(C)O)cc2O[C@H]1CN(C)Cc1ccccc1 | 7&4 | 9&7 |
| COCC(=O)N(C)C[C@H]1Oc2cc(-c3cccnc3)ccc2S(=O)(=O)N([C@@H](C)CO)C[C@H]1C | 7 | 10 |
| Cc1cc(C(=O)Nc2ccc3c(c2)C(=O)N(C)[C@@H]2CC[C@H](CC(=O)NCC(F)(F)F)O[C@@H]2CO3)no1 | 6 | 0 |
| O=S(=O)(N[C@@H]1CC[C@H](CCn2cc(-c3cccc(F)c3)nn2)O[C@@H]1CO)c1ccc(F)cc1 | -16 | -16 |
| CO[C@@H]1CN(C)C(=O)c2ccc(NC(C)=O)cc2OC[C@@H](C)N(C(=O)c2cccnc2)C[C@@H]1C | 4 | 7 |
| C[C@H](O)C#Cc1cnc2c(c1)C(=O)N([C@H](C)CO)C[C@H](C)[C@H](CN(C)C(=O)c1ccccc1)O2 | 3 | 14 |
| CNC[C@@H]1OCCCC[C@H](C)Oc2ccc(NC(=O)Nc3ccc(F)cc3)cc2C(=O)N([C@@H](C)CO)C[C@H]1C | 5 | -1 |
| Cc1ccc(-c2ccc([C@H]3[C@@H](CO)N4CCCCN(C(=O)c5ccc(F)cc5)C[C@H]34)cc2)cc1 | / | ? |
| C[C@H]1CCCCO[C@H](CN(C)Cc2ccncc2)[C@@H](C)CN([C@@H](C)CO)C(=O)c2cc(N(C)C)ccc2O1 | 0 | -6 |
| COc1ccc(NC(=O)Nc2cccc3c2O[C@@H](CN(C)S(=O)(=O)c2ccc(OC)cc2)[C@@H](C)CN([C@H](C)CO)C3=O)cc1 | 6 | 8 |
| O=C(Nc1ccccc1F)N1CC(=O)N2[C@@H](CO)[C@@H](c3ccc(C#Cc4ccc(F)cc4)cc3)[C@@H]2C1 | / | ? |
| O=C(C[C@H]1CC[C@@H]2[C@H](COC[C@H](O)CN2Cc2nccs2)O1)NCc1ccccc1 | 5 | 1 |
| COc1ccc(NC(=O)N(C)C[C@@H]2Oc3ccc(NC(=O)CCN4CCOCC4)cc3CC(=O)N([C@@H](C)CO)C[C@@H]2C)cc1 | 0 | 8 |
| Cc1ccc(S(=O)(=O)Nc2ccc3c(c2)C(=O)N(C)[C@H]2CC[C@H](CC(=O)O)O[C@H]2CO3)cc1 | -4 | -1 |
| C[C@@H]1CCCCO[C@H](CN(C)C(=O)Nc2ccc3c(c2)OCO3)[C@@H](C)CN([C@H](C)CO)C(=O)c2cc(NC(=O)c3ccccc3)ccc2O1 | 9 | 7 |
| O=C1O[C@@H](c2ccccc2)[C@@H](c2ccccc2)N2[C@@H](c3ccccc3OCCO)[C@]3(C(=O)Nc4ccccc43)[C@@H](C(=O)N3CCCCCCC3)[C@H]12 | / | ? |
| CNC[C@H]1Oc2c(NS(=O)(=O)c3ccc(OC)cc3)cccc2C(=O)N([C@@H](C)CO)C[C@@H]1C | -2 | 5 |
| C[C@@H]1CCCCO[C@@H](CN(C)S(=O)(=O)c2cccs2)[C@H](C)CN([C@@H](C)CO)C(=O)c2cc(NS(=O)(=O)c3ccc(F)cc3)ccc2O1 | -21 | -32 |
| C[C@@H]1CN([C@H](C)CO)C(=O)Cc2cc(NS(=O)(=O)c3ccccc3)ccc2O[C@@H]1CN(C)Cc1ccc(Cl)c(Cl)c1 | / | ? |
| CC(C)CC#Cc1ccc([C@@H]2[C@H](CO)N3CCCCN(C(=O)Cc4ccccn4)C[C@@H]23)cc1 | / | ? |
| C[C@H]1CN([C@@H](C)CO)C(=O)c2cc(NC(=O)Cc3cn(C)c4ccccc34)ccc2O[C@H]1CN(C)CC1CC1 | -11 | -19 |
| O=C(C[C@@H]1C[C@H]2c3cc(NC(=O)C4CCOCC4)ccc3O[C@H]2[C@H](CO)O1)NCc1cccc(F)c1 | 2 | 8 |
| CCC(=O)Nc1ccc2c(c1)C(=O)N(C)[C@@H]1CC[C@H](CC(=O)Nc3cccc(OC)c3)O[C@H]1CO2 | 0 | -2 |
| O=C(C[C@@H]1C[C@H]2c3cc(NC(=O)C4CCOCC4)ccc3O[C@H]2[C@@H](CO)O1)NCc1ccccc1 | 10 | 13 |
| COc1ccc(C#Cc2ccc3c(c2)[C@H]2[C@H](CCN2C(=O)c2cccc(F)c2)[C@@H](CO)N3)cc1 | 2 | 12 |
| Cc1cccc(CN(C)C[C@H]2OCc3cn(nn3)CCCC(=O)N([C@@H](C)CO)C[C@@H]2C)c1 | 4 | 11 |
| COc1cccc(S(=O)(=O)N2CCC3(CC2)CN(C(=O)Nc2ccc(F)cc2)[C@@H](CO)c2[nH]c4cc(OC)ccc4c23)c1 | / | ? |
| C[C@H]1CN([C@@H](C)CO)C(=O)c2cc(C#Cc3ccccn3)cnc2O[C@@H]1CN(C)C(=O)CCN1CCCCC1 | -8 | -7 |
| CCCC(=O)Nc1ccc2c(c1)C(=O)N(C)[C@@H]1CC[C@@H](CC(=O)NCC3CC3)O[C@@H]1CO2 | 7 | 10 |
| CN(C)CC(=O)Nc1ccc2c(c1)[C@@H]1C[C@H](CC(=O)NCc3cccnc3)O[C@H](CO)[C@@H]1O2 | 3 | 7 |
| C[C@@H]1CN([C@H](C)CO)C(=O)c2cc(NC(=O)Cn3cnnn3)ccc2O[C@H]1CN(C)S(=O)(=O)c1cn(C)cn1 | 10 | 11 |
| O=C(C[C@H]1CC[C@H]2[C@@H](COC[C@H](O)CN2C(=O)c2cnccn2)O1)NCc1ccc(F)cc1 | 11 | 1 |
| O=C(NCC[C@@H]1CC[C@@H](NS(=O)(=O)c2ccc(Cl)cc2)[C@@H](CO)O1)c1ccccc1F | -5 | -8 |
| C[C@@H]1CCCCO[C@@H](CN(C)C(=O)NC2CCCCC2)[C@H](C)CN([C@@H](C)CO)C(=O)c2cc(N(C)C)ccc2O1 | -9 | -19 |
| CCC(=O)Nc1ccc2c(c1)OC[C@@H](C)N(Cc1cncnc1)C[C@H](C)[C@@H](OC)CN(C)C2=O | -9 | -13 |
| CO[C@H]1CN(C)C(=O)c2cc(NC(=O)C3CC3)ccc2OC[C@@H](C)N(Cc2cccnc2)C[C@H]1C | -6 | -12 |
| CO[C@@H]1CN(C)C(=O)c2cc(NC(=O)c3ccccc3F)ccc2OC[C@H](C)NC[C@@H]1C | 14 | 11 |
| CC(C)NC(=O)N(C)C[C@@H]1Oc2cc(C#CC3CC3)ccc2S(=O)(=O)N([C@@H](C)CO)C[C@@H]1C | -1 | 2 |
| C[C@@H]1CN([C@@H](C)CO)C(=O)c2cc(NC(=O)CCCCCC(=O)Nc3ccccc3N)ccc2O[C@@H]1CN(C)C(=O)Nc1ccc(C(F)(F)F)cc1 | 9 | 22 |
| COc1ccc(-c2ccc([C@@H]3[C@H]4CN(Cc5ccc(F)cc5)CC(=O)N4[C@H]3CO)cc2)cc1 | 5 | 9 |
| CC=Cc1ccc2n(c1=O)C[C@@H]1[C@@H](CO)[C@H](C(=O)N3CCOCC3)N(CC3CC3)[C@H]21 (mixture of isomers) | 3 | 7 |
| CCCN(C)C[C@H]1Oc2cc(-c3cncnc3)ccc2S(=O)(=O)N([C@H](C)CO)C[C@H]1C | 3 | 18 |
| CNC[C@H]1Oc2c(NS(=O)(=O)c3ccc(C)cc3)cccc2C(=O)N([C@@H](C)CO)C[C@@H]1C | 2 | -1 |
| O=C(C[C@@H]1CC[C@@H](NS(=O)(=O)c2ccccc2)[C@@H](CO)O1)NCc1ccccc1F | 11 | 5 |

More structures:
| Structure | Vaccinia stage Venus | Vaccinia stage |
| --- | --- | --- |
| O=C(C[C@@H]1C=C[C@H](NC(=O)c2cnccn2)[C@H](CO)O1)NCc1ccccc1F | 14 | 3 |
| CCCNC(=O)N[C@H]1CC[C@@H](CCn2cc(-c3cccc(F)c3)nn2)O[C@@H]1CO | 12 | 14 |
| COc1ccc(S(=O)(=O)N(C)C[C@H]2Oc3ccc(N(C)C)cc3C(=O)N([C@H](C)CO)C[C@H]2C)cc1 | -5 | 5 |
| CN1c2ccc(-c3cccc(F)c3)cc2[C@@H]2[C@@H](CCN2C(=O)C2CCOCC2)[C@H]1CO | 8 | 6 |
